Lassa entry inh: Lassa virus entry inhibition | Lassa virus pseudotype entry inhibition, cell reporter; control for the full effect not named in the record | Potency, µM (titrated, usually from 37.9 µM), without a hit: top-dose activity change, negative = inhibition, usual class: inhibitors | 300,000 tested, 1.2% active | AID 540256; active means well fitted inhibition curve with a large enough effect; inconclusive means small, poorly fitted or top-dose-only effect, or effect the other way; inactive means flat fitted curve, though single readings scatter; tested in HEK293 cells; further: on the % scale 0 is the no-effect control and ±100 the full control effect; nearly all actives have a fitted effect of over 50% in size; luciferase read-out
SARS PLpro yeast: inhibitors of SARS-CoV papain-like protease in yeast; S. cerevisiae expressing SARS-CoV PLpro, growth rescue; control for the full effect not named in the record; Potency, µM (top dose mostly 32.9 µM), without a hit: top-dose activity, positive = growth rescue; 330,000 tested, 0.19% active; AID 485353; further: 0% is about no effect; nearly all actives have a fitted effect of over 55% in size; growth read by luminescence after 48 h
Marburg entry inh: inhibitors of Marburg virus binding or cell entry | Marburg virus pseudotyped entry inhibition, cell reporter; control for the full effect not named in the record; about a third of the inactives were read at about 46 µM | Potency, µM (highest dose often 37.8 µM), inactives show at the highest dose activity change, negative = inhibition, most hits filed as inhibitors | 300,000 tested, 1.8% active | AID 540276; active = well fitted inhibition curve with a large enough effect; inconclusive = small, poorly fitted or top-dose-only effect, or effect the other way; inactive = flat fitted curve, though single readings scatter; tested in HEK293 cells; about a fifth of its hits are not listed in these tables; further: on the % scale 0 is the no-effect control and ±100 the full control effect; luciferase read-out
RE007 growth inh: less growth of the S. pombe RE007 Vpr strain | AID 651644 | S. pombe RE007 Vpr strain, BacTiter-Glo ATP luminescence, 24 h; control for the full effect not named in the record | Potency, µM (titrated, usually from 92.2 µM), for the others: at the highest dose activity change, negative = less growth | 360,000 tested, 0.21% active; active = well fitted falling curve with a large enough effect; inconclusive = small, poorly fitted or top-dose-only effect; inactive = no such curve, though single readings can be large or run the other way;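 further: on the % scale 0 is the no-effect control and ±100 the full control effect; nearly all actives have a fitted effect of over 50% in size; the assay follows cell death caused by Vpr and the record does not say whether a fall means rescue or toxicity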
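Fission yeast strain RE007, carrying one chromosomally integrated HIV-1 vpr copy, was seeded at OD 0.01 in PMG+AL medium with 23 nL pinned compound. After 24 h at 30 °C and 99% humidity, viability was read by BacTiter-Glo luminescence.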
Cruzain inh noDet: inhibitors of Trypanosoma cruzi cruzain without detergent. 200,000 tested, 2.3% active. AID 1476. P25779. Potency, µM, inactives show max response, negative = inhibition, actives largely listed as inhibitors. purified cruzain, Z-FR-AMC fluorescence, no detergent; active means well fitted curve in the direction sought with a large enough effect; inconclusive means small, poorly fitted or top-dose-only effect, or another doubt; inactive means no such curve, though single readings can be large; an effect the other way counts as inactive or inconclusive;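 further: plate controls were enzyme without inhibitor for no effect and buffer without enzyme for full effect; nearly all actives have a fitted effect of over 40% in size; top concentration of the series not given in the record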
Target sequence (P25779 123-467 limits assumed): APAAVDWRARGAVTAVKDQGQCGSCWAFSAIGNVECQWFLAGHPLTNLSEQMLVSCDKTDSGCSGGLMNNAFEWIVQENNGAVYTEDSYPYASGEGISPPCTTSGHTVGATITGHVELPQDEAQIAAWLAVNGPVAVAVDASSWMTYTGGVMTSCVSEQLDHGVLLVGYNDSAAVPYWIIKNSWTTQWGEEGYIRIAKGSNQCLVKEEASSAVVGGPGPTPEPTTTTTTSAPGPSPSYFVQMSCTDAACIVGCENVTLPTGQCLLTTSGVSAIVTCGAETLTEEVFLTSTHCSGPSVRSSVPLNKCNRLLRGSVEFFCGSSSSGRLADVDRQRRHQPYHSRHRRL
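Purified cruzain at 1.5 nM, pre-incubated 15 min with compound at room temperature in 100 mM sodium acetate pH 5.5, 5 mM DTT, 0.00005% Triton X-100. Reaction started with 2 uM Z-FR-AMC; AMC fluorescence increase over 60 s gives rate.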
Cruzain Triton: blocks cruzain activity in presence of Triton detergent | P25779 | purified cruzain, Z-FR-AMC fluorescence, 0.01% Triton | Potency, µM, for the others: max response, negative = inhibition, usual class: inhibitors | 200,000 tested, 0.43% active | AID 1478; active means well fitted curve in the direction sought with a large enough effect; inconclusive means small, poorly fitted or top-dose-only effect, or another doubt; inactive means no such curve, though single readings can be large; an effect the other way counts as inactive or inconclusive;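 further: plate controls were neutral wells for no effect and buffer without enzyme for full effect; nearly all actives have a fitted effect of over 40% in size; top concentration of the series not given in the record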
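Read-out: AMC fluorescence (360 nm excitation, 450 nm emission), four reads over 2 min, first-to-third difference used. Conditions: cruzain 1.5 nM, Z-FR-AMC 2 uM, pH 5.5 acetate, 5 mM DTT, 0.01% Triton X-100.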
NS1 function inh: influenza NS1 inhibition | S. cerevisiae slowed by influenza A NS1, growth recovery by OD600 | Potency, µM (titrated, usually from 46.1 µM), for the others: at the highest dose activity, positive = more growth | 270,000 tested, 0.4% active; further: actives are rising curves; nearly all actives have a fitted effect of over 50% in size
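Read-out: OD600 growth recovery of NS1-expressing budding yeast. Cells grown overnight at 30C in -URA glucose medium, washed, resuspended and diluted 1:100 in 2% galactose assay medium, pH 6.0. Same strain lacking NS1 served as positive control.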
2A StopGo: lowers the luciferase signal of an FMDV 2A StopGo reporter; human cells with a luciferase reporter of 2A StopGo recoding; control for the full effect not named in the record; Potency, µM (top dose mostly 57.9 µM), for the others: at the highest dose signal change, negative = less light; 410,000 tested, 1.2% active; active = well fitted falling curve with a large enough effect; inconclusive = small, poorly fitted or top-dose-only effect; inactive = no such curve, though single readings can be large or run the other way; tested in HEK293T cells; further: on the % scale 0 is the no-effect control and ±100 the full control effect; nearly all actives have a fitted effect of over 45% in size; luciferase light after 4 h
The depositor's hits bear a star; ? = inconclusive; / = no result given; & = joins results of further samples; [ ] = another dose, or the depositor's remark. Unless noted, the call rests on the fitted dose curve; in most records, active means well fitted rising curve with a large enough effect; inconclusive means small, poorly fitted or top-dose-only effect; inactive means no such curve, though single readings can be large or run the other way. Potency means the concentration at half of the fitted maximal effect. Compounds were not picked by outcome; any-hit rate near 4.5%.

Below each compound – Cruzain inh noDet	RE007 growth inh	2A StopGo	Cruzain Triton	SARS PLpro yeast	Lassa entry inh	Marburg entry inh	NS1 function inh
- CC(=O)Nc1ccccc1NC(=O)C/C(C)=N/NC(=O)C(=O)N1CCCCC1
  /	-0.2%	-16.2%	/	1.4%	4.3%	-2.4%[46.1 µM]	-2.6%
- COc1ccc(-c2csc(NS(=O)(=O)c3ccc([N+](=O)[O-])cc3)n2)cc1
  15.1%	-6.7%	-10.1%	-16.8%	-12.4%	-5.8%	-11.7%	0.7%
- Cc1ccc(Nc2nc(N)nc(CN3CCN(C)CC3)n2)cc1
  -20.0%	-7.8%	63.2%[activator]	0.8%	1.5%	?	-2.2%	4.9%
- Cc1nn(CC(=O)Nc2ccc3c(c2)OCO3)c(C)c1[N+](=O)[O-]
  /	13.3%	8.2%	/	0.3%	-1.8%[46.1 µM]	-6.4%[46.1 µM]	-0.3%
- O=C(O)CCc1nnc2n(Cc3ccc(F)cc3)c(=O)c3ccccc3n12
  5.6%	18.0%	1.9%	1.3%	2.1%	/	/	-0.9%
- CC(NC(=O)c1cc2ccccn2n1)c1ccccc1 (stereo not drawn)
  -7.5%	/	0.1%	2.0%	/	-6.7%[46.1 µM]	/	/
- Cc1nc(N2CCN(c3ccccn3)CC2)c2c(C)c(C(=O)Nc3ccc(F)cc3F)sc2n1
  /	-10.9%	?	/	-3.0%	-18.5%	-22.1%[46.1 µM]	/
- CCC1(C)Cc2c(sc3c2c(=O)n(C)c2nnc(SCC(=O)c4ccccc4)n32)CO1 (stereo not drawn)
  /	16.0%	-3.6%	/	/	-0.2%	-1.0%	-49.6%
- COc1ccc(Cl)cc1C(=O)NNC(=O)C1CCCO1 (stereo not drawn)
  /	5.0%	7.2%	/	-1.4%	?	12.0%[46.1 µM]	/
- NS(=O)(=O)c1ccc(N2C(=O)C3C4CC(C(Br)C4Br)C3C2=O)cc1 (stereo not drawn)
  /	-5.8%	-9.7%	/	-0.8%	-5.9%[46.1 µM]	5.0%[46.1 µM]	/
- NC(=O)C1CCCN(S(=O)(=O)c2ccc3ccccc3c2)C1 (stereo not drawn)
  /	-1.3%	0.4%	/	-1.8%	21.1%[46.1 µM]	22.1%[46.1 µM]	5.3%
- COc1ccc(CCNC(=O)CCCCCN2C(=O)[C@@H]3Cc4ccccc4CN3C2=O)cc1OC
  /	-1.3%	-9.3%	/	-4.5%	30.3%[46.1 µM]	-0.3%[46.1 µM]	-4.9%
- COc1cccc(NC(=O)CSc2nnc(Cn3nnc4ccccc43)n2C)c1
  -5.3%	-16.8%	-4.5%	1.5%	1.0%	-21.0%	?	-1.1%
- Cc1cccc2nc(CNC(=O)CC3C(=O)NCCN3Cc3cccc(F)c3)cn12 (stereo not drawn)
  /	1.5%	-14.1%	/	14.6%	/	/	-4.5%
- Cc1ccc(C(C)C)cc1OCC(=O)NNC(=O)Nc1ccccc1
  /	1.8%	6.5%	/	-0.8%	-11.0%[46.1 µM]	-13.2%[46.1 µM]	3.2%
- CCOc1c(Nc2ccc(C(C)C)cc2)c(=O)c1=O
  /	19.3%	45.7%[activator]	/	-7.6%	/	/	-32.2%
- Cc1ccccc1NC(=O)Nc1nnc(CC(=O)NCc2ccccc2)s1
  /	-19.3%	-5.1%	-2.2%	3.4%	-7.4%	?	13.5%
- O=C(c1cccs1)N(Cc1ccco1)Cc1cc2ccccc2[nH]c1=O
  -8.9%	10.7%	?	-2.0%	3.9%	9.9%	-2.3%	8.8%
- COc1cc(C(=S)N2CCCC2)ccc1OCc1ccc(C)cc1
  /	-10.2%	0.0%	/	-2.0%	/	/	-14.2%
- COC(=O)Cn1c(=NC(=O)c2ccc(OC)cc2)sc2cc(OC)ccc21
  -2.5%	-7.7%	0.0%	?	5.2%	-0.1%	?	8.2%
- CCCCc1cc(=O)oc2cc(C)cc(OCC(=O)NCc3ccncc3)c12
  /	-3.0%	-18.3%	/	12.6%	14.6%[46.1 µM]	-25.7%[46.1 µM]	-4.7%
- CCC12CN(C(=O)c3ccc(OC)cc3)CC(CC)(CN(C(=O)c3ccc(OC)cc3)C1)C2=O
  25.3%	-5.1%	-11.0%	5.8%	-10.5%	-6.1%	-0.3%&-11.3%	2.8%
- COc1ccccc1N1CCN(C(c2ccc(N(C)C)cc2)c2nnnn2CCc2ccccc2)CC1 (stereo not drawn)
  ?	12.6%	-13.6%	-1.9%	2.1%	?	?	11.4%
- COc1cccc(C(=O)C2CCCN(Cc3ccc4nsnc4c3)C2)c1 (stereo not drawn)
  /	6.1%	-25.0%	/	0.8%	10.2%[46.1 µM]	-13.9%[46.1 µM]	-3.5%
- CCOc1ccc(NC(=S)N(CCc2c(C)[nH]c3ccc(C)cc23)Cc2cccnc2)cc1
  ?	9.7%	-2.8%	-3.2%	-7.8%	-20.2%	-31.9%	9.9%
- Cc1c(NC(=O)C(C)OC(=O)c2cccc(S(=O)(=O)N3CCOCC3)c2)c(=O)n(-c2ccccc2)n1C (stereo not drawn)
  /	3.1%	-13.5%	/	-0.1%	/	/	-4.2%
- Cc1ccc(OCCNC(=O)/C=C/c2ccccc2)cc1C
  2.3%	-4.1%	5.2%	-7.7%	-0.8%	10.4%	-4.0%	-14.2%
- COc1ccc(C(=O)C[n+]2cccc3cc(OC)ccc32)cc1
  /	-3.9%	-10.6%	/	-1.6%	-11.2%	-13.5%	-1.3%
- COc1ccc(OC)c(NC(=O)c2ccc3c(c2)C(=O)N(c2ccc(OC(C)=O)cc2)C3=O)c1
  /	2.3%	-19.4%	/	-0.7%	/	/	4.5%
- Cc1nc(-c2ccc(Cl)cc2)sc1CCNC(=O)c1ccc(C(F)(F)F)cc1
  -0.6%	/	?	-4.5%	/	13.5%[46.1 µM]	/	/
- CC1Cc2cc(/C(O)=C3/C(=O)C(=O)N(CCCN(C)C)C3c3ccncc3)ccc2O1 (stereo not drawn)
  -6.2%	-1.5%	-12.2%	1.4%	0.3%	1.1%	3.3%&3.3%	-6.0%
- Cc1ccc(NC(=O)C(C)OC(=O)Cc2c[nH]c3ccccc23)cc1S(=O)(=O)N1CCOCC1 (stereo not drawn)
  /	-11.9%	6.4%	/	3.3%	?	-1.0%	/
- CSc1nc2nc3c(c(=O)n2[nH]1)CCCC3
  2.7%	1.5%	-9.9%	4.5%	?	12.3%	17.7%	3.2%
- CCc1cccc2c(C(=O)CSc3nncn3-c3ccc(OC)cc3)c[nH]c12
  -5.2%	4.6%	-14.2%	-1.3%	-0.6%	?	?	0.2%
- NS(=O)(=O)c1ccc(NC(=O)C2CCCN(S(=O)(=O)c3ccc(F)cc3)C2)cc1 (stereo not drawn)
  8.0%	-6.3%	/	-0.7%	0.9%	-4.4%	7.8%	18.4%
- Cc1nn(C2CCS(=O)(=O)C2)c(Cl)c1/C=C/C(=O)OCC(=O)N(C)C (stereo not drawn)
  /	5.1%	1.2%	/	3.5%	19.5%	12.7%[46.1 µM]	/
- CC(C)(C)C(=O)CSc1ncnc2sc3c(c12)CCC3
  /	4.3%	1.4%	/	-3.0%	1.5%	3.2%	2.5%
- C=CCn1c(SCC(=O)NC2CCS(=O)(=O)C2)nnc1-c1cc2c(s1)CCC(CC)C2 (stereo not drawn)
  ?	1.3%	6.7%	-1.0%	-8.8%	-11.4%	-27.0%	-8.3%
- COc1ccc(OC)c(/C=N/NC(=O)CCc2ccc(O)c(O)c2)c1
  ?	3.6%	-22.1%	-23.6%	-3.2%	-3.6%	?	11.6%
- CN1C(=O)c2cccc3c(S(=O)(=O)NCCc4ccccc4)ccc1c23
  /	-18.1%	86.0%[activator]	/	-0.7%	-22.7%	-10.6%[46.1 µM]	-19.6%
- CC12CC3CC1C(C(=O)O2)C3C(=O)O (stereo not drawn)
  /	2.8%	-8.1%	/	/	14.4%	-1.7%	/
- CCc1cccc(NC(=O)Cn2ncc3c([nH]c4ccc(C)cc43)c2=O)c1
  2.6%	/	-14.7%	-0.7%	/	?	/	/
- Cc1c(C(=O)Nc2ccccc2)sc2nc(-c3ccccc3)cn12
  3.0%	-18.4%	-12.7%	-1.9%	-1.4%	3.1%	-0.6%	-16.2%
- CC1Cc2nc(SCC(=O)NCC3CCCO3)n(C)c(=O)c2S1 (stereo not drawn)
  /	22.5%	-15.0%	/	/	2.0%	10.4%	3.8%
- Cc1ccc(Cn2ccnc2SCC(=O)Nc2ccccc2C(F)(F)F)cc1
  13.3%	/	9.2%	-6.3%	/	10.7%[46.1 µM]	/	/
- O=C(N1CCOCC1)N(CCN1CCOCC1)Cc1cccc2ccccc12
  -5.6%	-0.2%	0.0%	12.6%	-11.3%	-4.8%	?	4.8%
- O=C(COC(=O)c1ccccc1Br)NCCc1ccc(F)cc1
  -5.3%	-1.1%	40.9%[activator]	-3.3%	6.9%	4.6%	2.1%	-1.3%
- Cc1ccc2onc(CC(=O)N3CCN(c4ccccc4F)CC3)c2c1
  ?	/	10.7%	-6.9%	/	?	/	/
- CC(C)(C)c1ccc(C(=O)NCCCN2CCN(CCCNC(=O)c3ccc(C(C)(C)C)cc3)CC2)cc1
  ?	67.2%	-17.9%	-2.7%	-6.6%	?	?	-1.5%
- CS(=O)(=O)N1CCCC(C(=O)NCCCN2CCN(Cc3ccccc3)CC2)C1 (stereo not drawn)
  -5.9%	-5.7%	-0.1%	7.8%	0.2%	14.2%	0.8%	-4.2%
